# D2 agonist: agonists of human D2 dopamine receptor (beta-arrestin) | P14416 | DiscoveRx PathHunter D2 beta-arrestin, luminescence, 90 min; 100% = 57 uM dopamine signal | activation, % (concentration not given with the values) | actives 0.084% (n = 360,000); in the data active = activation above about 40%; inconclusive = about 15% to 40%; inactive = below about 15%; further: compound concentration not given in the record; the text of the record calls up to 30% inactive
# Target sequence (P14416 whole entry, looked up): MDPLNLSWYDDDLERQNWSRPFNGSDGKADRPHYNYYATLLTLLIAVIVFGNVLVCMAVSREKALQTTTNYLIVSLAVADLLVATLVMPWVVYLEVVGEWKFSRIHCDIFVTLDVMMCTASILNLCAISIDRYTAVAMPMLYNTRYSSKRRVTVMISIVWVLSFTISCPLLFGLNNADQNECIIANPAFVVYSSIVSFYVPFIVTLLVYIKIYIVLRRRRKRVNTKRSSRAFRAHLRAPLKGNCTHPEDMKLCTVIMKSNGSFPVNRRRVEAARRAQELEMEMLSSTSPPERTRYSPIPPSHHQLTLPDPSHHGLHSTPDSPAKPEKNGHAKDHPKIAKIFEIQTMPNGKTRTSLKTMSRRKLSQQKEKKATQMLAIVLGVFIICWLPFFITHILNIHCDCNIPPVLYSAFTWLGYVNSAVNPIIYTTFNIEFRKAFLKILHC
#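 DiscoveRx PathHunter D2 beta-arrestin cells (2,100/well) attached overnight, then compound-stimulated 90 min at 37 C in HBSS/10 mM HEPES/0.1% Tween-20 buffer; beta-galactosidase complementation read by luminescence after 1 h at ambient temperature. Dopamine 57 uM final (EC100) as control.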
# CtBP-E1A blk: CtBP/E1A binding inhibition; AlphaScreen GST-E1A/His-CtBP binding, 1536-well; active compounds read low; control for the full effect not named in the record; activity change, % (concentration not given with the values); actives 0.49% (n = 340,000); AID 651724; in the data active means activity change below about -65%; inconclusive means about -30% to -65%; inactive means above about -30%; further: on the % scale 0 is the no-effect control and ±100 the full control effect
#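 Steps: dispense buffer (Tris pH 8.0, NaCl 300 mM, TCEP 1 mM, BSA, Tween 20); add 5X protein mix (GST-E1A, His-CtBP, 125 nM each); pin 23 nL compound; 2 h at 37 °C, dark; add 5X beads (50 ug/mL); 1 h; read.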
# TRPML1 agonist: agonists of human TRPML1 channel. TRPML1-expressing cells, Ca2+ dye fluorescence, FDSS; host cell line not named in the record; reference of the full effect not given here. AID 624414. actives 0.12% (n = 410,000). activation, % (no concentration beside the values). Q9GZU1; in the data active = activation above about 50%; inconclusive = about 30% to 50%; inactive = below about 30%; further: 0% is about no effect; the text of the record puts the active cut at 80%
# Target sequence (Q9GZU1 whole entry, looked up): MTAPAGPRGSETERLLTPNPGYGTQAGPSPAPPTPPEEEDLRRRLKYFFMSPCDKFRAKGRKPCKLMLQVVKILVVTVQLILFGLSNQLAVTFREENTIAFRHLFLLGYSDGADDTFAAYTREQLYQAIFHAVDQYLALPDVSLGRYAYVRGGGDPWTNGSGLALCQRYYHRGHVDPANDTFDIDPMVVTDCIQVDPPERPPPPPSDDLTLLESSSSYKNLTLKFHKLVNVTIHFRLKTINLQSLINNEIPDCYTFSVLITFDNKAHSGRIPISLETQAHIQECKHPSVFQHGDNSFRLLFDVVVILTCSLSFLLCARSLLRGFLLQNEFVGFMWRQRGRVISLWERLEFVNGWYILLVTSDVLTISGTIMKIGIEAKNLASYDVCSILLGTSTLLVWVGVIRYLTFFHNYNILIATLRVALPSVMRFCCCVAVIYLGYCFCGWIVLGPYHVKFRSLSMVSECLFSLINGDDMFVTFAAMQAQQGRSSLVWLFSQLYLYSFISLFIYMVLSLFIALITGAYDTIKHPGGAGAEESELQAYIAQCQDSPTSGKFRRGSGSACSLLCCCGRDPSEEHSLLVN
#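 TRPML1-DL cells, Tet-induced overnight (~16 h, 37 degrees C), loaded 45-90 min at room temperature with Ca8 no-wash calcium dye plus quencher. FDSS fluorescence: 10 s baseline, compound pin-transfer, 110 s agonist read, then EC80 54-4 (4uM final) and 110 s antagonist read.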
# PINK1 modulator: changes PINK1 expression | actives 0.2% (n = 410,000) | PINK1 immunofluorescence, high-content cytometry, 24 h | AID 624263 | Potency, µM (top dose mostly 76.6 µM), for inactives: at the top dose activation (PINK1 increase), usual class: activators; active = well fitted activation curve with a large enough effect; inconclusive = small, poorly fitted or top-dose-only effect; inactive = flat fitted curve, though single readings scatter; cell line not stated here;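 further: potency means the concentration at half of the fitted maximal effect; % of control where 0% means no effect; nearly all actives have a fitted effect of over 65% in size; a mitochondrial uncoupler was the plate control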
#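 Cells are seeded, rested 12 hours, then given compound at five concentrations or DMSO for 24 hours. After fixation, blocking and antibody staining, PINK1 amount and mitochondrial localization are scored; CCCP serves as control.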
# Six1-Eya2 blk: Six1/Eya2 interaction inhibition. Q15475+O00167. AlphaScreen GST-Six1/His-Eya2 binding, biochemical; active compounds read low; control for the full effect not named in the record. activity change, % (concentration not given with the values). actives 0.56% (n = 360,000); in the data active = activity change below about -65%; inconclusive = about -30% to -65%; inactive = above about -30%; further: on the % scale 0 is the no-effect control and ±100 the full control effect
#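 GST-Six1 + His-Eya2 (5X stock: 250/500 nM); Tris pH 8.0, 300 mM NaCl, 0.05% BSA, 0.02% Tween 20; GSH donor/Ni acceptor beads; 1 h 37 °C dark; AlphaScreen readout.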
# TRPML1 inh: human mucolipin-1 channel inhibition; Q9GZU1; TRPML1-inducible cells, Ca2+ dye fluorescence, FDSS; active compounds read low; inhibition of EC80 agonist-evoked calcium signal; activity change, negative = inhibition, % (test concentration not listed); actives 0.02% (n = 390,000); in the data active means activity change below about -50%; inconclusive means about -30% to -50%; inactive means above about -30%;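 further: stimulus is agonist 54-4 at its EC80 concentration; on the % scale 0 is the no-effect control and ±100 the full control effect; compound concentration not given in the record; the text of the record puts the active cut at -80%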
#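 Calcium fluorescence in TRPML1-DL cells induced overnight with Tet: a 110 s read after compound pin addition, then a 110 s antagonist read after challenge with 54-4 at 4 uM final (EC80).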
# The depositor's hits bear a star; ? = inconclusive; / = not tested or not shown; & = joins results of further samples; [ ] = dose if it differs, or a comment. This is a random part of the collection. About 1% of those tested had a hit in this group.
SMILES,D2 agonist,CtBP-E1A blk,TRPML1 agonist,PINK1 modulator,Six1-Eya2 blk,TRPML1 inh
CCOC(=O)C1(C)CCCN(C(=O)c2ccc3c(c2)CCO3)C1 (stereo not given),0.6,0,-0.5,0.5%,-4,/
COC(=O)c1cccc(Nc2nc(-c3cccnc3)nc3ccccc23)c1,-4.4,-29,0.8,-0.6%,-15,-5
COc1ccc2cc(C(c3nnnn3C3CCCC3)N3CCOCC3)c3nnnn3c2c1 (stereo not given),2.8,3,1.8,-1.3%,21,47
Cc1ccc(OCCC(=O)OC(C)C(=O)Nc2ccc(Cl)cn2)cc1 (stereo not given),-5.6,21,1.8,3.4%,5,0
CCOC(=O)c1cn(Cc2ccccc2)c(C(=O)OC(C)(C)C)c1O,-1.6,-22,60*,13%,11,-5
COc1cc([N+](=O)[O-])c2ncccc2c1,/,/,1.3,-1.1%,/,0
Cc1cc(N2CCOCC2)n2ncc(-c3ccccc3)c2n1,-3.3,20,0.1,-1.4%[38.3 µM],20,6
Cc1ccc(S(=O)(=O)N(C)CC(=O)NNC(=O)CCS(=O)(=O)c2ccccc2)cc1,-1.9,8,1.1,1.4%,4,-9
CNC(=O)c1ccc(C)c(NC(=O)C2=C(C)OCCS2)c1,-0.1,6,1.3,-1.1%,2,-30
O=C(NCCc1ccccc1)c1ccc(-n2cnnn2)cc1,-1.2,1,0.5,0.2%[38.3 µM],0,3
CCOc1ccc(NC(=O)C2C3CC/C=C\CCC32)cc1 (stereo not given),-6.1,4,0.0,8.4%,12,20
CCN1CCC2(CCN(Cc3cn[nH]c3-c3ccc(OC)c(F)c3)C2)C1 (stereo not given),-0.5,4,0.5,0.2%,3,-10
Cc1ccc(C)c(S(=O)(=O)N2CCCC2CNC(=O)C(=O)NCc2cccs2)c1 (stereo not given),0.4,-2,0.4,0.0%,0,-3
COc1ccccc1OCC(O)Cn1c(Br)nc2c1c(=O)[nH]c(=O)n2C (stereo not given),-1.9,2,-0.7,-1.4%,0,-13
COc1cc(CN(CC2CCCO2)C(=O)c2cccs2)cc(OC)c1OC (stereo not given),-1.1,-2,-0.7,-1.3%,5,-9
Cc1ccccc1OCCn1cnc2c(N)ncnc21,-1.3,-8,-0.4,0.8%,7,-5
COc1ccc(S(=O)(=O)NCC(c2cccnc2)N2CCN(C)CC2)cc1C (stereo not given),-2.1,0,-0.5,0.8%,2,-1
O=C(Nc1ccc(-c2nc3cccnc3s2)cc1)C1CCCO1 (stereo not given),-2.4,-10,-0.5,-2.2%,-3,-6
C=CCC[C@H](Cc1ccc(F)cc1)C(=O)OC[C@@H](C)NC(=O)[C@@H](CC=C)CC(=O)N[C@@H](CO)Cc1ccccc1,1.4,4,1.9,-0.9%,2,8
COc1ccccc1OCCCCCCN1CCN(C)CC1,-6.0,-2,-0.1,0.7%,9,13
Cc1cn(CC(=O)N[C@H](CO)Cc2c[nH]c3ccccc23)c(=O)[nH]c1=O,-1.6,3,0.2,0.5%,7,4
Fc1ccc(-c2nc(Nc3cccc(C(F)(F)F)c3)nc3c2COc2ccccc2-3)cc1,/,/,-0.6,0.2%,/,11
CCOP(=O)(OCC)c1nc(-c2ccc(Cl)cc2)oc1NCc1ccccc1,-2.1,/,0.5,8.9%,-17,-6
Cc1c(-c2nc(-c3ccccc3F)no2)nnn1-c1cc(F)ccc1F,/,/,0.5,3.1%,/,32

# As entered above:
# In TRPML1 inh, COc1ccc(S(=O)(=O)NCC(c2cccnc2)N2CCN(C)CC2)cc1C (stereo not given) is listed with -1
# In CtBP-E1A blk, Cc1cn(CC(=O)N[C@H](CO)Cc2c[nH]c3ccccc23)c(=O)[nH]c1=O is listed with 3
# In CtBP-E1A blk, C=CCC[C@H](Cc1ccc(F)cc1)C(=O)OC[C@@H](C)NC(=O)[C@@H](CC=C)CC(=O)N[C@@H](CO)Cc1ccccc1 is listed with 4

# Further results.
SMILES,D2 agonist,CtBP-E1A blk,TRPML1 agonist,PINK1 modulator,Six1-Eya2 blk,TRPML1 inh
O=C(Cn1ncc(Cl)c(Cl)c1=O)c1ccc(Cl)cc1,-1.0,6,0.0,?,-10,-8
COc1ccc(NC(=O)c2ccco2)cc1NC(=O)c1cccc(F)c1,-4.1,-5,-0.6,-0.7%,-5,5
CCOc1ccc(S(=O)(=O)N2CCN(S(=O)(=O)c3ccc(OCC)cc3)C(C)C2)cc1 (stereo not given),1.3,-4,1.2,9.1%,12,-18
Cc1ccc2nc(SCC(=O)N3CCCC3)[nH]c2c1,-1.4,-8,0.2,?,-1,9
C=CCNC(=O)c1onc(CSc2ccccc2F)c1C(=O)O,0.2,6,-0.8,-0.8%,7,-1
CC(C)c1nc(NCC2CCCO2)c(C#N)c2c1COC(C)(C)C2 (stereo not given),-2.8,4,-0.2,-2.5%,-2,-5
COc1cc2c(cc1OC)CN(C(=O)Cn1ccccc1=O)CC2,-2.8,-1,/,-0.3%,-4,/
O=S(=O)(Nc1ccc2oc3c(c2c1)CCCC3)c1cc(Cl)ccc1Cl,/,/,-0.4,18%,/,2
C(=N\Nc1nncc2ccccc12)/c1ccccn1,7.6,-95*,1.4,?,-75*,15
CCCC(=O)N1CCCC(C(=O)c2cccc(OC(C)C)c2)C1 (stereo not given),3.8,4,-0.7,-0.6%,-3,-3
COc1ccc(C(=O)CSc2[nH]c(=O)cc(C(F)(F)F)c2C#N)cc1,-3.6,-6,-0.5,20%,-18,4
COC(=O)c1sccc1S(=O)(=O)N(CC(=O)NCc1ccccc1)c1ccc(C)c(C)c1,/,/,2.7,5.3%,/,1
CC1SCC(=O)N(CC(=O)Nc2ccc3c(c2)OCO3)C1=O (stereo not given),1.9,/,-0.6,-0.7%,5,-3
COc1ccc(OCCN2CCN(C(=O)c3ccc(OC)c(OC)c3)CC2)cc1,4.2,-5,0.6,-1.0%,-10,-11
O=C(c1[nH]c(C(F)(F)F)nc1-c1ccccc1)N1CCN(c2ccccc2)CC1,3.2,-14,-0.1,6.4%,1,/
O=C(Nc1ccccc1C(=O)O)c1ccc(NC(=O)C2CCCCC2)cc1,-2.0,-77*,1.0,2.0%,-83*,8
O=c1nc(N2CCCC2)nc(N2CCCC2)[nH]1,-2.2,5,0.1,-0.5%,3,-17
COc1cc(OC)cc(C(=O)NCC(=O)OCC(=O)NC(C)(C)C)c1,0.6,-8,1.9,1.1%,4,-8
Cc1cc(C)c(S(=O)(=O)Nn2cnnc2)c(C)c1,-1.3,0,0.8,-0.3%,3,15
COc1ccc(-c2nnc(SCC(=O)Nc3cc(C)on3)n2C)cc1OC,-1.8,5,0.5,-0.3%[38.3 µM],0,-6
CCOC(=O)C(C)N1c2cccc3cccc(c23)S1(=O)=O (stereo not given),-2.3,10,-0.7,2.7%,7,38
CC(C)N(C(=O)[C@H]1C[C@H](CC(=O)NCCCn2ccnc2)C(=O)N2CCc3c([nH]c4ccc(Cl)cc34)[C@]12C)C(C)C,-1.2,-7,0.1,1.2%,-10,13
CCOC(=O)C1CCCN(C(=O)Cn2nc(C)n3nc(-c4ccccc4)cc3c2=O)C1 (stereo not given),-0.1,1,-0.2,-0.7%,0,6
FC(F)(F)c1nnc(-c2ccccc2)nc1Oc1ccc(Cl)cc1Cl,-1.4,-2,1.2,-1.5%,-4,14
O=C(CSc1ccsc1[N+](=O)[O-])N1CCN(c2ccc(Cl)cc2)CC1,-3.0,2,2.5,?,-16,11
COc1cccc(C(=O)Nc2cccc(-c3cn4c(C)csc4n3)c2)c1OC,/,/,0.0,-3.8%,/,-5
Cc1ccc(-c2nc(C)c(CCNC(=O)C(=O)Nc3cc(C)ccc3C)s2)cc1,/,/,5.3,-0.2%,/,9
Cc1ccc(C(=O)c2cc3ccccc3o2)cc1C,2.6,19,1.5,7.3%,30,1
N#CC1(NC(=O)COc2ccccc2[N+](=O)[O-])CCCCC1,-2.5,0,0.5,-2.2%,5,14
Cc1cc(C)cc(NC(=O)N2CCN(c3cc(-c4noc(C)n4)ccc3C)CC2)c1,/,/,2.6,-4.8%,/,2
O=C(/C=C/c1ccc(Cl)cc1Cl)Nc1cccc(S(=O)(=O)NC2=NCCCCC2)c1,0.7,7,0.0,2.5%,-9,5
COc1ccc(C(=O)NC(=S)N(Cc2ccccc2)Cc2ccccc2)cc1,-7.6,-18,2.6,0.8%,-20,10
COc1ccc(-n2nc3c(c2NC(=O)c2ccco2)CS(=O)(=O)C3)cc1,-4.4,4,-0.3,-0.6%,3,0
Cc1cc(C(=O)OCCO)c(C#N)c(N)n1,-3.1,-2,-0.1,-0.2%,8,-9
CCOC(=O)c1c(C)[nH]c(C)c1S(=O)(=O)N1CCCC(C(=O)NCc2cccc(C)c2)C1 (stereo not given),/,/,1.4,2.2%,/,31
COCCNc1nc2c(c(=O)n(Cc3cccc(Br)c3)c(=O)n2C)n1C,-3.9,-4,0.4&-0.9,3.5%&0.9%,-5,12&1
Cn1c(=O)c2c(nc(SCc3ccccc3)n2Cc2ccc(Cl)cc2)n(C)c1=O,-3.2,0,-0.2,-1.6%,22,3
COc1ccccc1N(C)S(=O)(=O)c1ccc(C(=O)Nc2nc(C)cs2)cc1,-1.5,/,2.0,-2.4%,-21,-9
CC1CCCN(Cc2cnc(Cl)s2)C1 (stereo not given),-2.4,1,0.3,-1.9%,11,0
CCn1c(-c2cc(-c3ccc(C)cc3)nc3ccccc23)n[nH]c1=S,6.1,-1,1.4,-1.0%,-9,9
O=[N+]([O-])c1ccc(NC(=S)NCCc2ccc(F)cc2)cc1,-0.4,-2,0.7,?,-10,39
Cc1ccc(C(=O)NCCNS(=O)(=O)c2ccccc2)cn1,-0.8,2,0.3,4.1%,6,7
CCC(C)Sc1ccc(-c2nc3ccc(C)cn3c2NCc2ccccc2)cc1OC (stereo not given),7.4,-18,-0.9,16µM*,-12,67
CCOC(=O)c1c(-c2ccccc2)oc2ccc(OCC(=O)NNC(=O)CCCC(=O)O)cc12,-4.7,/,-0.5,3.1%,?,-2
CN(C)c1ccnc(Oc2ccccc2)c1C#N,-3.7,7,0.1,27%[38.3 µM],9,4
Cc1cc2oc(C(=O)Nc3sc4c(c3C(=O)NCc3ccco3)CCC4)cc(=O)c2cc1C,/,/,0.0,0.1%,/,-23
COC(=O)c1[nH]c(=O)c2ccccc2c1O,-7.4,5,-0.8,-0.7%,17,11
Cc1ccc(S(=O)(=O)N(C)c2cc(S(=O)(=O)N3CCC(C)CC3)c(C)cc2C)cc1,-3.7,4,-0.3,-1.0%,-4,11
Cc1ccc(C(=O)N(NC2=NS(=O)(=O)c3ccccc32)S(=O)(=O)c2ccc(C)cc2)cc1,-2.1,61,0.2,-2.9%,-12,5

# Whole records, looked up by structure.
# COc1ccccc1N(C)S(=O)(=O)c1ccc(C(=O)Nc2nc(C)cs2)cc1 is listed with D2 agonist = -1.5; CtBP-E1A blk = /; TRPML1 agonist = 2.0; PINK1 modulator = -2.4%; Six1-Eya2 blk = -21; TRPML1 inh = -9
# Cn1c(=O)c2c(nc(SCc3ccccc3)n2Cc2ccc(Cl)cc2)n(C)c1=O is listed with D2 agonist = -3.2; CtBP-E1A blk = 0; TRPML1 agonist = -0.2; PINK1 modulator = -1.6%; Six1-Eya2 blk = 22; TRPML1 inh = 3
